# High-throughput results deposited in PubChem by several laboratories.
# Sa ugtP lethal = growth inhibition of S. aureus ugtP deletion strain | 0.54% of 330,000 active | S. aureus RN4220 ugtP deletion, OD600 growth, 16 h; some inactives read as strong as hits | growth inhibition, % (test concentration not listed) | AID 1259309;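 active means z-score under -3 and OD600 up to 0.15 on both plates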;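 further: plate controls were untreated wells for no effect and antibiotic for full effect; wells of about 80 µL received 100 nL stock; the first replicate is given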
# BJeLR viability = kills HRASV12-expressing BJeLR cells. inhibition, % (test concentration not listed). 0.17% of 300,000 active. BJeLR (HRASV12) viability, CellTiter-Glo ATP luminescence, 48 h; reference of the scale not given here. AID 1554;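 active means replicate mean above 50%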;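 further: 50 nL library stock added to about 25 µL; numbers are from one replicate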
# Autofluor counter = flagged as autofluorescent in microsphere protease counterscreen | compound autofluorescence counterscreen, microsphere flow cytometry; stronger effect = higher value | fluorescence intensity (concentration not given with the values) | 3.1% of 360,000 active | AID 624483;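 active means at least 3 SD above the mean of all compounds, about 16000 in these data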;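 further: 100 nL of 1 mM stock went into each well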
# Sa RN4220 lethal = S. aureus RN4220 growth inhibition | inhibition, % (concentration not given with the values) | 0.33% of 330,000 active | OD600, 16 h;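 active means z-score of -3 or lower and OD600 up to 0.18 on both plates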;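 further: plate controls were untreated cells for no effect and reference antibiotic for full effect; stock transfer was 100 nL into about 80 µL; one replicate is shown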
# PrP UTR inh = suppresses PrP 5' UTR mRNA reporter expression; 0.35% of 340,000 active; inhibition, % (test concentration not listed); cell-based PrP 5' UTR mRNA reporter, plate reader; AID 488862;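 active means every replicate at 50% or more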;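 further: 0 = median of the neutral control wells; tested in H4 reporter cells; numbers are from one replicate; inactives centre near -14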
# Mtb hypoxia rep = inhibitors of hypoxia-regulated fluorescent reporter in Mycobacterium tuberculosis. 0.1% of 300,000 active. fluorescence inhibition, % (concentration not given with the values). M. tuberculosis hypoxia-regulated fluorescent reporter, fluorescence. AID 1159583;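 active means 35 to 45% if threefold the growth effect, above 45% if 1.5-fold the growth effect; inactive means the rest, general growth blockers included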;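 further: wells of about 50 µL received 100 nL stock; 0% = vehicle wells and 100% = reference inhibitor wells; whole bacteria with a GFP reporter of the hypoxia response; strong numbers were not always called active; many hits fall short of the cut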
# Mtb hypoxia rep growth = also measured in Mtb hypoxia rep; calls as there; growth inhibition, %; measured here: M. tuberculosis growth (absorbance);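 0% = vehicle and 100% = reference antibiotic; read after six days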
# * marks the source's active call; other numbers are inactive results; nt = not tested or not shown; & = joins results of further samples.
SMILES,Sa ugtP lethal,BJeLR viability,Autofluor counter,Sa RN4220 lethal,PrP UTR inh,Mtb hypoxia rep,Mtb hypoxia rep growth
O=C(C1CCCN(c2ncnc3c2nc2n3CCCCC2)C1)N1CCN(c2ccc(Cl)cc2)CC1 (configuration not stated),-7,5,5705,2.4,-11,4,6
c1ccc(C[C@H]2CN=C(Nc3ccccc3)N2CCCC2CCCCC2)cc1,-25,nt,3376,-14,-8,0,4
CC[C@H]1CC2CN3CCc4c([nH]c5ccccc45)C(C(=O)OC)(C2)C13 (some centres not stated),9,3,4466,3.4,nt,nt,nt
CCN(CC)CC(C)OC(=O)c1ccccc1Cl (configuration not stated),6,-7,3132,7.3,-16,1,-4
CCOC(=O)C1CCN(C(=O)COC(=O)/C=C/c2ccccc2)CC1,8,nt,nt,3.8,nt,8,7
O=C(c1cc(-c2cccs2)on1)N1CCCc2ccccc21,8,6,6112,4.3,-29,4,2
CCN(CC)S(=O)(=O)c1cc(NC(=O)C2CCN(c3ncnc4sc(C)c(C)c34)CC2)ccc1Cl,-7,8,5271,-2.3,-5,-3,0
COc1ccc2[nH]c(=O)c(CNc3ccc(C)c(C)c3)cc2c1,nt,3,3638,nt,-25,nt,nt
O=C(CCN1CCCCC1)NCNC(=O)CCN1CCCCC1,4,-8,4269,5.6,3,1,5
Cc1cc(C)n2c(SCc3c(C)noc3C)nnc2n1,5,nt,2451,-1.2,-21,nt,nt
Cc1cc(C)c(NC(=O)COC(=O)Cc2ccsc2)c(C)c1,5,-15,2630,-0.3,-24,-6,2
CC1CC(C)CN(C(=O)CNC(=O)c2sc3ccccc3c2Cl)C1 (configuration not stated),0,nt,3028,12,-22,7,1
COC(=O)N(c1ccccc1)P1(=S)OCCO1,-1,-7,4175,5.1,-11,-4,3
O=C(NCCCN1CCOCC1)c1ccc(/C=C2\Oc3ccccc3N(Cc3ccccc3F)C2=O)cc1,-19,-2,6090,-4.1,-1,10,4
O=C(NCc1cccs1)N[C@@H](Cc1ccccc1)C(=O)O,8,1,10498,5.3,-7,11,7
COc1ccccc1C(=O)Nc1nc(C)cc(C)n1,5,-6,nt,3.1,nt,7,-2
CCC(=O)c1ccc(OCC(O)Cn2nc(C)c(Br)c2C)cc1 (configuration not stated),-1,0,3244,6.0,-7,9,7
O=C(NCc1ccco1)C1CCCN(c2nnc(-n3cccc3)s2)C1 (configuration not stated),3,-11,4237,1.9,-27,9,1
COCCN(CC(=O)Nc1cccc(C)c1C)C(=O)c1ccc(S(=O)(=O)N2CCOCC2)cc1,0,nt,5311,3.6,-15,5,-7
Cc1nc(SCC(=O)NNC(=O)c2ccc(F)cc2)c2ccccc2n1,10,nt,3160,2.0,-30,nt,nt
O=C(NC(=S)Nc1nc(-c2ccccc2)cs1)c1cccnc1,6,5,4212,-1.2,-21,-2,18
CN(C)CCCN(C(=O)c1ccc([N+](=O)[O-])s1)c1nc2cc3c(cc2s1)OCCO3,5,23,5345,4.2,-23,10,9
COc1ccc(Cc2nnc(NS(C)(=O)=O)s2)cc1,-3,2,10913,1.1,-30,-3,9
O=C(COC(=O)C1CC1)c1c[nH]c2ccccc12,0,-2,19998*,8.7,-75,11,12
O=C(c1ccccc1Cc1ccccc1)N1CCN(S(=O)(=O)c2ccccc2F)CC1,-5,nt,3800,21,-17,6,-7

# Single records, as listed above. Values in the order: Sa ugtP lethal | BJeLR viability | Autofluor counter | Sa RN4220 lethal | PrP UTR inh | Mtb hypoxia rep | Mtb hypoxia rep growth
# Cc1cc(C)c(NC(=O)COC(=O)Cc2ccsc2)c(C)c1 in the list: 5 | -15 | 2630 | -0.3 | -24 | -6 | 2
# c1ccc(C[C@H]2CN=C(Nc3ccccc3)N2CCCC2CCCCC2)cc1 in the list: -25 | nt | 3376 | -14 | -8 | 0 | 4
# CCOC(=O)C1CCN(C(=O)COC(=O)/C=C/c2ccccc2)CC1 in the list: 8 | nt | nt | 3.8 | nt | 8 | 7
# Cc1nc(SCC(=O)NNC(=O)c2ccc(F)cc2)c2ccccc2n1 in the list: 10 | nt | 3160 | 2.0 | -30 | nt | nt

# The listing picks up, starting three compounds before the break.
SMILES,Sa ugtP lethal,BJeLR viability,Autofluor counter,Sa RN4220 lethal,PrP UTR inh,Mtb hypoxia rep,Mtb hypoxia rep growth
COc1ccc(Cc2nnc(NS(C)(=O)=O)s2)cc1,-3,2,10913,1.1,-30,-3,9
O=C(COC(=O)C1CC1)c1c[nH]c2ccccc12,0,-2,19998*,8.7,-75,11,12
O=C(c1ccccc1Cc1ccccc1)N1CCN(S(=O)(=O)c2ccccc2F)CC1,-5,nt,3800,21,-17,6,-7
Cc1cc(C)c2c(=O)n(CC(=O)N3CCC(Cc4ccccc4)CC3)sc2n1,31,-1,nt,7.0,nt,2,5
Cc1cccc(N2CN=C3SCC(=O)N3C2)c1,6,-10,nt,1.8,-82,2,-1
Cc1ccc(/C=N/NC(=O)c2nc3nc(C)cc(C)n3n2)cc1,nt,-4,1934,nt,-6,nt,nt
COc1cccc(CN2CCN(c3cccc(C(F)(F)F)c3)CC2)c1OC,71,4,16287*,8.0,-23,-2,-1
COC1(C2=NCCN2)COc2ccccc2O1 (configuration not stated),-2,nt,4710,10,-4,6,4
COC(=O)C1=C(c2ccc(F)cc2F)CC2CCC1N2C(=O)N1CCOCC1 (configuration not stated),4,nt,nt,1.9,nt,7,9
COc1ccc(C)cc1NC(=O)C(Sc1nnc2ccccn12)c1ccccc1 (configuration not stated),7,2,9358,0.7,-13,2,5
CCOc1ccc(CCNC(=O)c2cccc(NC3=NC4CS(=O)(=O)CC4S3)c2)cc1OCC (configuration not stated),7,-1,6481,15,-28,0,8
O=C(CSc1nncs1)NCc1ccc(F)cc1,15,-4,4003,1.5,-11,-1,7
COCCN(C(=S)Nc1ccc(OC)cc1)C1CCN(C(C)C)CC1,5,1,2261,4.7,1,0,10
O=C(NC(NCc1ccccc1)C(Cl)(Cl)Cl)c1cccnc1 (configuration not stated),0,1,3469,1.3,-16,6,4
COc1ccc(CC2CN3C(=NCC3Cc3ccc(O)cc3)N2CC(C)NC(=O)CCC2CCCCC2)cc1 (configuration not stated),-7&1,nt,nt,-8.1&-6.0,nt,5&-5,9&17
CC(=O)NC(=S)Nc1ccc(-c2nc3ccc(C)cc3s2)cc1,-7,-6,5420,-4.9,-65,nt,nt
O=C(O)CCn1c(=S)oc2ccccc21,2,-10,6474,2.3,-19,-1,-2
O=C(Nc1ccc(F)cc1F)c1cccc(S(=O)(=O)N2CCCCC2)c1,4,nt,2708,3.4,-10,4,-3
C#CCNC(=O)C=Cc1ccc(OC)cc1,-3,nt,nt,-0.6,nt,11,22
COc1ccccc1CN1Cc2cccc3c2C(CC1=O)C(O)C(O)C3 (configuration not stated),2,nt,nt,6.5,nt,3,9
CCN(CC)C(=O)CSc1nc2cc(S(=O)(=O)N3CCOCC3)ccc2n1CC,-6,11,6349,-4.0,-6,0,-10
CS(=O)(=O)Nc1nnc(SCC(=O)Nc2cccc([N+](=O)[O-])c2)s1,-1,-8,2242,7.6,-28,7,-6
CCOC(=O)c1c(C)[nH]c(C(=O)OCC(=O)Nc2ccc(OC)c(Cl)c2)c1C,8,-11,7087,5.7,-9,5,-1
O=C(NCc1nnc(SCC(=O)N2CCN(c3ccccc3)CC2)o1)c1ccccc1,0,0,4673,0.8,-22,0,13
COc1ccc(N(C)S(=O)(=O)c2cccc(C(=O)Nc3ccc4c(c3)OCCO4)c2)cc1,3,6,3122,14,-24,-4,11
Cc1ccc(S(=O)(=O)NC(Cc2c[nH]c3ccccc23)C(=O)O)cc1 (configuration not stated),-2,-6,4110,6.8,-17,7,13
O=C(CCSCc1ccc(Cl)cc1)NCCc1ccccc1,0,-4,2012,0.4,-19,-5,2
CC(c1nc2ccccc2o1)N1C(=O)c2ccccc2C1=O (configuration not stated),1,4,5443,3.4,-3,-4,4

# (next part)
SMILES,Sa ugtP lethal,BJeLR viability,Autofluor counter,Sa RN4220 lethal,PrP UTR inh,Mtb hypoxia rep,Mtb hypoxia rep growth
CCOC(=O)c1cccc(NS(=O)(=O)c2c(C)[nH]c(=O)[nH]c2=O)c1,1,-5,19045*,-0.4,-16,0,1
CCOc1ccc(NC(=O)C2C(c3ccccc3)C2(Cl)Cl)cc1 (configuration not stated),-1,1,4235,7.7,-16,-9,-1
NC(=O)NCC(c1ccccc1)C1CCCCC1 (configuration not stated),9,9,3443,1.0,-4,5,-3
CCOC(=O)CC(=O)CSc1nc2nc(C)cc(C)n2n1,3,-2,10681,2.8,-34,18,8
COc1ccc(-c2sc3ccc(N4CCOCC4)cc3c2-c2ccc(O)cc2)cc1,-1,nt,3836,-5.3,6,-1,0
COc1cc(C(C(=O)NC2CCCC2)N(Cc2ccco2)C(=O)c2snc(C(N)=O)c2N)cc(OC)c1OC (configuration not stated),-4,-9,4350,-5.3,-5,-11,-15
O=C(Nc1ccc(NC(=O)c2ccco2)cc1)c1ccc2c(c1)OCCO2,-7,0,4883,1.9,10,1,1
O=[N+]([O-])c1ccc(Cl)c(/C=N/N2CCN(Cc3ccccc3Cl)CC2)c1,nt,-4,2546,nt,-5,nt,nt
Cc1ccc(CC(=O)NNC(=O)c2cccs2)cc1C,0,nt,6440,2.6,-19,2,-2
Cc1ccc(SCc2c(C(=O)NN=Cc3ccncc3)nnn2-c2nonc2N)cc1,2,nt,nt,3.6,nt,4,3
COc1ccc(C(=O)Nc2ccc(NC(=O)C3CC3)cn2)cc1,7,-2,5064,0.8,-7,2,5
COc1ccc(N2CC(C(=O)Nc3nc4ccccc4s3)CC2=O)cc1 (configuration not stated),2,2,4458,3.6,-12,2,5
CC1CCCC(NS(=O)(=O)c2cc(Br)cnc2N)C1C (configuration not stated),-9,9,nt,9.5,-17,2,-1
COc1ccc2cc(C(=O)C3CCCN(C(=O)CSc4nnc(C)o4)C3)ccc2c1 (configuration not stated),10,-4,2718,1.1,3,10,3
COC(=O)c1cc(Cl)nc2ccccc12,2,5,3971,-0.8,5,-2,-11
Cc1ccc(NC(=O)CSCc2c(C)noc2C)cc1C,-2,2,4469,0.8,-5,nt,nt
O=C(Nc1cc(C(F)(F)F)ccc1N1CCOCC1)C1Cc2ccccc2CN1C(=O)c1ccco1 (configuration not stated),-13,3,20221*,6.5,-19,1,4
OCCC1CN(Cc2cnc(-c3ccccc3)s2)CCN1C1CCCC1 (configuration not stated),9,-1,2005,3.5,-1,19,5
Cc1cccc(NC(=S)N/N=C/c2cccc([N+](=O)[O-])c2)c1,nt,10,4615,nt,-26,nt,nt
CC(=NN)c1c(-c2ccccc2)c2cc(Br)ccc2[nH]c1=O,1,nt,nt,6.6,nt,11,8
COc1cc(Cl)c(C)cc1NC(=O)c1ccc(NS(=O)(=O)c2ccc(F)c(F)c2)cc1,-3,-13,2009,4.4,-4,15,6
Cc1noc(C)c1COC(=O)COc1cccc2c1OC(C)(C)C2,4,5,4992,2.4,-23,nt,nt
O=C(CN1C(=O)NC2(CCCC2)C1=O)Nc1nc(-c2ccccc2)cs1,2,-1,nt,0.0,11,4,-2
O=C(Nc1nnc(SCc2ccc(Cl)cc2Cl)s1)C1COc2ccccc2O1 (configuration not stated),16,-2,10055,13,-9,4,14
O=C(c1ccc(Cl)s1)N1CCCC(N2CCN(c3ccc(F)cc3)CC2)C1 (configuration not stated),6,-4,4804,2.2,5,6,-4

# Going on with the list:
SMILES,Sa ugtP lethal,BJeLR viability,Autofluor counter,Sa RN4220 lethal,PrP UTR inh,Mtb hypoxia rep,Mtb hypoxia rep growth
COc1cccc(C(=O)NC(=O)Nc2cc(C)on2)c1,3,-15,4359,7.0,-83,7,8
CC1CCCCC1NC(=O)COC(=O)c1ccc(S(=O)(=O)NCc2ccco2)cc1 (configuration not stated),-2,1,21167*,8.5,-19,11,6
O=C(C(=O)N1CCN(c2ccccc2F)CC1)c1c[nH]c2ccccc12,7,1,4293,1.0,-5,1,12
CCCCC[n+]1ccn(-c2nc3ccccc3nc2[N-]S(=O)(=O)c2ccccc2)c1,10,-4,3288,7.5,-11,3,3
O=C1c2ccccc2C(=O)N1CCC(=O)N1CCCc2ccccc21,3,-1,2799,8.9,-22,12,12
COc1ccc(NC(=O)c2ccco2)cc1NC(=O)c1ccc(C#N)cc1F,0,-1,4002,7.8,-9,-6,-5
COc1cc(C=NN2CCN(c3ccccc3)CC2)cc(OC)c1OC(C)=O,5,nt,nt,-0.6,nt,-8,-8
